Bioassay records (PubChem)
Choline anaer gr: growth inhibitors of anaerobic choline-fed gram-negatives, minimal medium, absorbance; AID 1963822, 2024; calls only; Gram-negative bacterium anaerobic choline minimal medium; active compounds read low; many inactives read as strong as hits in the columns shown; actives 0.2% (n = 55,000);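 active = growth z-score on choline under -2 at 7 or 20 h with little or no fall on glycerol, limits in tiers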;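 note: stock transfer was 300 nL into about 50 µL; the organism is E. coli; final concentration not given here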
Choline anaer gr early: second read-out of Choline anaer gr, no call of its own (marks repeat the call); z-score; measured here: choline growth z-score, timepoint 1;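 score of optical density at 7 h as mean of two plates; lower means less growth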
* marks the source's active call; other numbers are inactive results; i = inactive; & = joins results of further samples.

item | SMILES | Choline anaer gr | Choline anaer gr early
1 | CCOc1ccc(CN2C(=O)c3ccccc3CC2(C)C(=O)NCc2ccccc2C)cc1 (stereo not given) | i | 1.5
2 | O=C(CCCn1nnc2cc(S(=O)(=O)N3CCCCC3)ccc21)N1CCN(c2ccccn2)CC1 | i | -1.9
3 | CCSc1nc2n(n1)C(c1ccc(C(=O)O)cc1)C(C(=O)Nc1ccccc1C)=C(C)N2 (stereo not given) | i | 0.49
4 | COC1C=CO[C@@]2(C)Oc3c(C)c(O)c4c(O)c(c5c(c4c3C2=O)NC2(CCN(CC(C)C)CC2)N=5)=NC(=O)C(C)=CC=CC(C)C(O)C(C)C(O)C(C)C(OC(C)=O)C1C (stereo not given in full) | i | -2.4
5 | CCc1ccc(-n2nc3cc(C)c(NC(=O)c4ccc5c(c4)OCCO5)cc3n2)cc1 | i | 0.72
6 | Cc1ccc(S(=O)(=O)NC2CCN(C(=O)c3cncc(Br)c3)CC2)cc1 | i | 0.25
7 | Cc1[nH]nc(-c2c(C)sc(C)c2S(=O)(=O)NCc2ccc(Cl)cc2)c1C | i | 2
8 | CN1CCN(CCCNC(=O)c2cc3ccc4cccnc4c3[nH]2)CC1 | i | 0.97
9 | Cc1ccc(C)c(N2CCN(C(=O)CCc3nnc4n(Cc5ccccc5)c(=O)c5ccccc5n34)CC2)c1 | i | 0.71
10 | COc1ccc(C2CC(=O)c3cnc4c(-c5ccccc5)c(C)nn4c3C2)c(OC)c1 (stereo not given) | i | 0.26
11 | Cc1noc(C)c1CCNC(=O)c1ccc(Cl)c(-n2c(C)nc3cccnc32)c1 | i | -0.39
12 | Cc1ccc(CN2CCC3(CC2)N=C(c2ccc(Br)cc2)C(=O)N3)c(C)c1 | i | 0.74
13 | CCn1c(C(=O)N2CCC(C(=O)NCc3ccccc3Br)CC2)cc2occc21 | i | 0.59
14 | CCOc1ccccc1C(=O)Nc1nc(SCC)ns1 | i | 1.6
15 | Cc1nn(-c2cc(N3CCCC3)ncn2)c(C)c1CCC(=O)NC1CCCC1 | i | 0.74
16 | CCc1nc(-c2ccc(C)c(S(=O)(=O)NCCN3CCC(C)CC3)c2)no1 | i | -1.6
17 | COC(=O)[C@H](c1ccccc1Cl)N1CCc2sccc2C1 | i | -0.02&0.84
18 | CCn1nc(C)c(CCN(C)C(=O)Nc2cc(C)cc(C)c2)c1C | i | -0.21
19 | COc1ccc(CN2C(=O)c3nc4ccccc4n3CC2(C)C(=O)NCCC(C)C)cc1 (stereo not given) | i | -0.06
20 | CCCCC/C=C/C=C1/C(=O)C=C[C@@H]1C/C=C\CCCC(=O)O | i | -0.43&-0.37&0.11
21 | Cc1cccc(NC(=O)C2CCCN(S(=O)(=O)c3ccc4c(c3)CC(C)N4C(=O)C3CC3)C2)c1 (stereo not given) | i | 0.91
22 | CCCn1cc(C2CC(=O)N(c3ccc(C)cc3)C2=O)c2ccccc21 (stereo not given) | i | -0.79
23 | Cc1ccccc1N1C(=O)C(Oc2ccc(Cl)cc2)C1CNC1CCCCC1 (stereo not given) | i | 0.38
24 | CN(Cc1cc(=O)[nH]c2ccccc12)C(=O)c1ccc(F)cc1 | i | -0.39
25 | CN(C)c1ccc(CC2C(=O)Nc3ccc(Cl)cc32)cc1 (stereo not given) | i | -1.2

Five compounds drawn at random from those above, as already listed:
item | SMILES | Choline anaer gr | Choline anaer gr early
2 | O=C(CCCn1nnc2cc(S(=O)(=O)N3CCCCC3)ccc21)N1CCN(c2ccccn2)CC1 | i | -1.9
14 | CCOc1ccccc1C(=O)Nc1nc(SCC)ns1 | i | 1.6
6 | Cc1ccc(S(=O)(=O)NC2CCN(C(=O)c3cncc(Br)c3)CC2)cc1 | i | 0.25
22 | CCCn1cc(C2CC(=O)N(c3ccc(C)cc3)C2=O)c2ccccc21 (stereo not given) | i | -0.79
20 | CCCCC/C=C/C=C1/C(=O)C=C[C@@H]1C/C=C\CCCC(=O)O | i | -0.43&-0.37&0.11

(next part)
item | SMILES | Choline anaer gr | Choline anaer gr early
26 | Cc1ccc(C)c(N2CCN(C(=O)C3CCCN(C(=O)c4cc(-c5cccnc5)n[nH]4)C3)CC2)c1 (stereo not given) | i | -0.36
27 | O=C(NCCC1CCN(C(=O)c2ccc(F)cc2)CC1)c1ccc2c(c1)OCO2 | i | -0.4
28 | Cc1nnc2ccc(N3CCC(C(=O)NC4CCCCC4)CC3)nn12 | i | -0.55
29 | O=C(Nc1ccc2c(c1)OCCO2)N1CCN(Cc2cc(=O)n3nc(-c4cccc(F)c4)sc3n2)CC1 | i | -0.61
30 | Cc1cccc(N2CCN(c3ccc4nnc(CCc5nc(-c6ccc(F)cc6)no5)n4n3)CC2)c1 | i | 3.1
31 | COc1cccc(CNc2ccc3[nH]c(=O)[nH]c3c2)c1OCc1ccc(Cl)cc1 | i | 1.3
32 | COc1ccc(NC(=O)Nc2nnc(SCC(=O)Nc3ccccc3OC)s2)cc1 | i | 1.2
33 | Fc1ccc(OCc2nnc3sc(-c4ccccn4)nn23)cc1 | i | -0.82
34 | O=C(Cc1ccc(Cl)cc1)NCCn1c(C(F)(F)F)nc2cccnc21 | i | -0.66
35 | COc1nc(C)ccc1-c1noc(-c2ccc(Cl)cc2)n1 | i | 0.21
36 | Brc1ccc(-c2noc(CSc3ccc(-c4ccccc4)nn3)n2)cc1 | i | -0.01
37 | Cc1nc2cc(C(=O)NCCc3c[nH]c4ccc(Cl)cc34)ccc2n(Cc2ccccc2)c1=O | i | 0.24
38 | CCOc1ccc(C2CC(=O)Nc3c2c(C)nn3-c2ccc3nnc(C)n3n2)cc1 (stereo not given) | i | 0.6
39 | Cc1ccc(CC(=O)N2CCc3c(c(C(=O)N4CCCC(C(=O)Nc5ccccc5)C4)nn3C)C2)cc1 (stereo not given) | i | 0.24
40 | COc1ccc(Nc2nc(-c3nnn(-c4ccc(Br)cc4F)c3C)ns2)cc1 | i | 1.5
41 | O=C(NCc1ccc(F)cc1)c1n[nH]nc1Nc1ccccc1Cl | i | 0.5
42 | COc1ccccc1-c1cc2n(C)c(C)c(CCC(=O)NCC3CCCO3)c(=O)n2n1 (stereo not given) | i | 0.46
43 | CCC(=O)Nc1cccc(-c2noc(C3CCCN(C(=O)COc4ccc(Cl)cc4)C3)n2)c1 (stereo not given) | i | 0.21
44 | CCc1c(C)nc2ncnn2c1N1CCN(c2ccccc2F)CC1 | i | -0.96
45 | COc1ccc(Nc2cc(-n3nc(C)cc3C)ncn2)cc1OC | i | 1.1
46 | CC(=O)/C(C)=N/O | i | -0.15
47 | CCOC(=O)c1ccccc1NC(=O)C(c1ccccc1)N1Cc2ccccc2C1=O (stereo not given) | i | 0.43
48 | Cc1onc(-c2ccccc2Cl)c1C(=O)Nc1cc2c(cc1N1CCOCC1)n(C)c(=O)n2C | i | 0
49 | CCc1nc2sc(C)nn2c1S(=O)(=O)NC1CCCC1 | i | 0.21
50 | c1ccc(-c2nc3cc(-c4noc(C5CCOC5)n4)ccc3o2)cc1 (stereo not given) | i | -0.11

Record cards, as listed above.
Cc1ccc(C)c(N2CCN(C(=O)CCc3nnc4n(Cc5ccccc5)c(=O)c5ccccc5n34)CC2)c1 as listed: Choline anaer gr: i; Choline anaer gr early: 0.71
Fc1ccc(OCc2nnc3sc(-c4ccccn4)nn23)cc1 as listed: Choline anaer gr: i; Choline anaer gr early: -0.82
Cc1ccccc1N1C(=O)C(Oc2ccc(Cl)cc2)C1CNC1CCCCC1 (stereo not given) as listed: Choline anaer gr: i; Choline anaer gr early: 0.38

Next structures follow.
item | SMILES | Choline anaer gr | Choline anaer gr early
51 | CCc1nnc(NC(=O)CSc2nc(=O)[nH]c3c2CCC3)s1 | i | -1.5
52 | CN(Cc1ccccc1)C(=O)c1ccc(Oc2ccnc(-c3ccc(F)cc3)n2)cc1 | i | 2.8
53 | Cc1cc2c(cc1S(=O)(=O)N1CCCC(C(=O)N(C)C3CCCCC3)C1)OC(C)C(=O)N2 (stereo not given) | i | -0.32
54 | C=CCOc1c(Cl)cc(CNCCSc2nnnn2C)cc1OC | i | -1.7
55 | Cc1ccc(-c2cncc(C(=O)Nc3ccc(Br)c(C)c3)c2)cc1 | i | 1.5
56 | CCc1ccc(NC(=O)Cn2cnc3oc(C)c(C)c3c2=O)cc1 | i | 1.9
57 | Cc1cc(Nc2c(C(=O)N3CCCCC3)cnc3ccc(F)cc23)ccc1Br | i | 0.85
58 | O=C(COc1ccccc1)Nc1ccnn1C1CCCC1 | i | 0.35
59 | CCn1ccc2cc(S(=O)(=O)N3CCCC(C(=O)N4CCN(C5CCCCC5)CC4)C3)ccc21 (stereo not given) | i | 0.22
60 | O=C(NCC1CCCO1)C1CCN(c2ncnc3c2oc2ccccc23)CC1 (stereo not given) | i | -0.25
61 | Cc1ncc(-c2ccc(C)c(S(=O)(=O)N3CCc4ccccc4C3)c2)o1 | i | -0.15
62 | Cc1csc(-c2cc(S(=O)(=O)N3CCN(c4ccc(Cl)cc4)CC3)c(C)s2)n1 | i | 0.62
63 | O=C(CSc1nc2nc[nH]c2c(=O)[nH]1)NC1CCS(=O)(=O)C1 (stereo not given) | i | 0.13
64 | C=CCc1ccccc1OCCn1c(C(O)CCC)nc2ccccc21 (stereo not given) | i | 0.71
65 | O=C(Nc1ccc(S(=O)(=O)N2CCOCC2)s1)N1CCCN(C(=O)C2CCCO2)CC1 (stereo not given) | i | -0.04
66 | Cc1nc2nc(N(Cc3ccccc3)C(=O)CC(C)C)[nH]n2c(=O)c1Cc1ccccc1Cl | i | -0.63
67 | CCn1nc(C)c2c1c(=O)n(Cc1ccccc1)c(=O)n2CC(=O)NC(C)CCc1ccccc1 (stereo not given) | i | 0.26
68 | O=C(CN1C(=O)C2CCCCN2c2ccc(C(=O)N3CCCC3)cc21)Nc1nccs1 (stereo not given) | i | -1.2
69 | COc1ccc(C(=O)NCC(c2ccccc2)c2c[nH]c3ccccc23)cc1Cl (stereo not given) | i | 0.89
70 | C=CCn1c(=O)c2sc(N(CC)CC)nc2n(CC(=O)NCc2ccc3c(c2)OCO3)c1=O | i | -0.2
71 | CCc1ccc(CN2CCCC2c2cc(C)on2)cc1 (stereo not given) | i | 0.19
72 | O=C(Nc1ccc2c(c1)OCCO2)C1CCCN(C(=O)c2cc(-c3ccncc3)n[nH]2)C1 (stereo not given) | i | 2
73 | CCCCS(=O)(=O)N1CCC2(C1)C(=O)Nc1ccccc12 (stereo not given) | i | 0.5
74 | CCC(CC)C(=O)NC1CC(=O)N(c2ccc3c(c2)OCCO3)C1 (stereo not given) | i | -1.6
75 | COc1ccc(Cc2nnc(NC(=O)C3c4ccccc4Oc4ccccc43)s2)cc1 | i | -0.16

Values in list order from the list.
Choline anaer gr, compounds 70–73 → i, i, i, i
Choline anaer gr early, compounds 70–73 → -0.2, 0.19, 2, 0.5

(list continues)
item | SMILES | Choline anaer gr | Choline anaer gr early
76 | COC(=O)c1ccc2c(c1)N(C)C(=O)CS2 | i | -0.97
77 | COc1ccc(C)cc1NC(c1ccccn1)c1ccc2cccnc2c1O (stereo not given) | i | 0.05
78 | COc1ccc(-n2nc(C(=O)N3CCCCC3c3cccnc3)c(=O)n(C)c2=O)cc1 (stereo not given) | i | -1.2
79 | CCn1nccc1NC(=O)COc1ccc(Cl)cc1 | i | -0.26
80 | CCOc1ccc(S(=O)(=O)N2CCN(c3cc(N(C)C)nc(C)n3)CC2)c(OCC)c1 | i | 1.7
81 | Cc1ccc(C(=O)Nc2ccc3c(c2)NC(=O)CO3)cc1 | i | 0.39
82 | O=C1CC(c2cc(F)cc(F)c2)Cc2nc(N3CCN(c4ccccc4F)CC3)ncc21 (stereo not given) | i | 0.19
83 | Cc1cc2nc(CSc3cccc(Cl)c3)cc(=O)n2o1 | i | 0.82
84 | CCOC(=O)c1[nH]c(C)c(CN(C(=O)NC)C2CCCCC2)c1C | i | 0.02
85 | Cc1cccc(NC(=O)NCc2cc(=O)n3nc(-c4ccccc4)sc3n2)c1C | i | -0.25
86 | C[C@H](NC(CCc1ccccc1)C(=O)O)C(=O)N1CCC[C@H]1C(=O)O (stereo not given in full) | i | -1.3&0.82
87 | Cc1csc(NC(=O)CSc2nn3c(=O)c(C)nnc3s2)n1 | i | 0.71
88 | O=C1CC(C(=O)N2CCc3ccccc32)CN1CCc1c[nH]c2ccc(Cl)cc12 (stereo not given) | i | 1.2
89 | CCSc1nn(CC(=O)Nc2ccc(Br)cc2)c(N)c1S(=O)(=O)c1ccc(C)cc1 | i | 0.5
90 | CCn1c2c(c3cc(C(C)(C)C)ccc31)CCCC2=O | i | -0.32
91 | COCCN1C(=O)c2cc3c(OC)ccc(OC)c3n2CC1(C)C(=O)NC1CCCC1 (stereo not given) | i | 0.26
92 | O=S1(=O)N(Cc2ccc(Br)cc2F)CCN1Cc1ccc(F)cc1Cl | i | 1.2
93 | O=C(NCC1CCCO1)C1CCN(c2cncnc2N2CCOCC2)CC1 (stereo not given) | i | -0.97
94 | O=C(CN1C(=O)C2CCCCN2c2ccc(C(=O)N3CCCCC3)cc21)NC1CCCCC1 (stereo not given) | i | 0.74
95 | O=C(CCc1nc(CS(=O)(=O)c2ccc(Cl)cc2)no1)N1CCc2ccccc21 | i | -0.07
96 | COc1ccc(-n2c(=O)c3c(c4cc(OC)ccc4n3C)n(Cc3ccccc3)c2=O)cc1 | i | -1.3
97 | COc1ccc(CCNC(=O)Cn2c(=O)c(C)nc3ccccc32)cc1OC | i | -0.57
98 | O=C(c1ccoc1)N1CCC(N2CCc3ccccc32)CC1 | i | 0.08
99 | COc1ccccc1NC(=O)CN1N=NC2C(=O)N(c3ccc(C(C)C)cc3)C(=O)C21 (stereo not given) | i | 0.89
100 | CC(=O)Nc1ccc(S(=O)(=O)N2CCN(C)c3ccccc32)cc1 | i | -1.2
101 | Cc1c(C(=O)N2CCOCC2)sc2ncnc(N3CCN(C)CC3)c12 | i | 0.44
102 | O=C(NCCc1c[nH]c2ccc(Cl)cc12)c1cccc(NC(=O)c2nnc(C3CC3)s2)c1 | i | 1.5
103 | CCC(C(=O)Nc1ccc2c(c1)OCCO2)n1c(=O)c(-c2ccccc2NC(C)=O)nc2ccccc21 (stereo not given) | i | -0.83

Some of the compounds tested; the hit share may differ from the screen's.
